# CSC inhib = cancer stem cell inhibition | cancer stem cell-like cells viability, luminescence | inhibition, % at 7.5 µM | hit rate 1.1% among 300,000 | AID 2717;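 active means mean at 75% or more and at least half the replicates too; tested in HMLE shEcad cells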;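 further: 0% = median of negative and 100% = median of positive control wells; the first replicate is given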
# PABP polyA inh = PABP-poly(A) binding inhibition; P11940; hit rate 1% among 290,000; PABP-poly(A) RNA binding, fluorescence polarization; inhibition, % at 35 µM;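 active means 50% or more with normal probe brightness, or confirmed in later tests; about a fifth of its hits are not listed in these tables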;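 further: calls also rest on retests at 20 µM and on dose response follow-up; controls were probe without protein and protein plus probe with vehicle; some compounds called inactive have numbers as strong as hits; many hits fall short of the cut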
# eIF4H FP inh = inhibitors of RNA binding by human eIF4H | Q15056 | eIF4H fluorescence polarization binding assay | inhibition, % at 35 µM | hit rate 0.94% among 290,000 | AID 2012;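 active means 50% or more with normal probe brightness, or confirmed in later tests; about a fifth of its hits are not listed in these tables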;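 further: calls also rest on retests at 20 µM and on dose response follow-up; 0% = protein and probe with vehicle and 100% = probe without protein; strong numbers were not always called active; many hits fall short of the cut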
# Yeast UUG start = yeast start codon fidelity modulation; S. cerevisiae UUG-firefly luciferase reporter, luminescence/redox ratio; activity score, % at 18.7 µM; hit rate 0.13% among 350,000; AID 602363;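 active means replicate mean at a twofold rise or more, about +100% in these data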;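 further: firefly luciferase made from a UUG start codon reports start codon fidelity; reporter light over untreated wells divided by growth signal over untreated wells; some hits fall short of that in this replicate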
# MT1-MMP act inh = MT1-MMP (human) activation inhibition. P50281. HT1080 RFP-PRO-GFP cells, GFP/RFP ratio fluorescence, overnight; percent of plate control window, DMSO zero. GFP/RFP ratio change, % at 20 µM. hit rate 0.061% among 360,000. AID 651647;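 active means GFP/RFP ratio change of at least 30% with cell ATP level not reduced by more than half and red fluorescence within 50% of control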; further: strong numbers were not always called active
#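 Test system: HT1080 cells expressing an RFP-PRO-GFP fluorescent reporter construct / Compound dosing: single-point 20 µM compound, 1% DMSO / Schedule: cells overnight before dosing, compound overnight, 37 °C, 5% CO2 / Evaluation: GFP/RFP fluorescence ratio / Control set: DMSO and RFP-L50D-GFP cell wells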
# Rce1 inh = inhibitors of yeast Ras-converting enzyme | Q03530 | yeast membranes, quenched prenylated peptide cleavage fluorescence | calls only | hit rate 0.27% among 290,000 | AID 2563;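 active means fall in fluorescence gain of 50% or more versus controls, with final raw signal at or below 3038400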;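 further: plate controls were neutral control wells for no effect and wells lacking membranes for full effect; tested at 10 µM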
# Target sequence (Q03530 whole entry, looked up): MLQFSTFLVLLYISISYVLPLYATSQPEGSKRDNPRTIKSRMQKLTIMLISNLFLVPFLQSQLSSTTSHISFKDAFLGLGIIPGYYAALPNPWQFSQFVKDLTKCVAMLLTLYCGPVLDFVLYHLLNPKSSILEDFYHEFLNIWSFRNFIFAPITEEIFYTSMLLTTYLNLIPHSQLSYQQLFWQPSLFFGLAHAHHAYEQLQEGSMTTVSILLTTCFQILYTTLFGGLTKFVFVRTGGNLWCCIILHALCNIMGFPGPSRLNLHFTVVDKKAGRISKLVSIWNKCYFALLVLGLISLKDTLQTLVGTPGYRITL
# Env fusion inh = HIV envelope-mediated fusion inhibition | hit rate 1.1% among 360,000 | HeLa-JRFL Env/CEM21 cell fusion, luciferase | inhibition, % at 12.3 µM;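 active means mean replicate inhibition score of at least 50 and every replicate individually at or above 50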;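 further: 0% = plate neutral controls and 100% = maraviroc near 300 nM; one replicate is shown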
# eIF4H FP inh retest = also measured in eIF4H FP inh; calls as there; inhibition, %; compound at 20 µM; confirmation average;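 mean of two retest wells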
# PABP polyA inh retest = also measured in PABP polyA inh; calls as there; inhibition, %; compound at 20 µM; confirmation repeats;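 mean of two retest wells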
# MT1-MMP act inh RFP = further read-out of MT1-MMP act inh, marked with its call; RFP signal change, %; measured here: RFP expression control read;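 0 = vehicle wells; hits needed this value within 50% of zero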
# * hit, by the source's call; i = inactive; · = no result given.
SMILES,CSC inhib,PABP polyA inh,eIF4H FP inh,Yeast UUG start,MT1-MMP act inh,MT1-MMP act inh RFP,Rce1 inh,Env fusion inh,others
COCCn1c(=NC(=O)c2ccc(S(=O)(=O)N3CCCc4ccccc43)cc2)sc2cc(S(C)(=O)=O)ccc21,7.0,-4.2,4.8,1.4,3.0,1.9,i,22.8,
O=C(/N=C1\NC(=O)C(F)(C(F)(F)F)S1)NC1CCCCC1 (stereo not drawn),-12.2,101.8,121.8*,-1.0,-3.6,-3.3,i,·,eIF4H FP inh retest=83.7*;PABP polyA inh retest=19.4
O=c1c2c(-c3ccccc3)csc2ncn1/N=C/c1cccc([N+](=O)[O-])c1O,12.5,2.4,15.0,-17.8,7.0,4.1,i,-1.3,
CSc1nnc2c(n1)OC(c1cn(C)c3ccccc13)N(C(C)=O)c1ccccc1-2 (stereo not drawn),-11.0,-0.5,-3.6,·,·,·,i,·,
Cc1ccn(CC(=O)O)c(=O)c1,-16.7,-2.1,-5.3,-3.5,9.4,5.2,i,4.2,
COc1ccc(NC(=O)c2ccc(-c3c(C)noc3C)c3ccoc23)cn1,·,·,·,-28.7,11.4,2.7,·,-43.8,
Cc1cc(OCCCC(=O)NCCN2C(=O)S/C(=C\c3cccnc3)C2=O)ccc1Cl,2.8,-11.3,2.9,·,-5.6,-22.8,i,13.8,
C/C(=C\c1ccccc1)C(=O)c1c(C)cc(C)[nH]c1=O,·,-8.7,3.0,·,2.0,6.6,i,13.6,
COc1cccc(-c2n[nH]nc2C2=CC(=O)CC(C)(C)C2)c1,·,·,·,1.2,6.2,0.3,·,19.8,
Cc1ccsc1C(=O)NCC(C)(C)N1CCOCC1,-30.5,·,·,1.8,3.9,-1.7,·,-28.5,
CN(N)c1nc(-c2ccccc2)cc(-c2ccccc2)n1,18.5,-1.8,-3.3,-28.0,-0.3,-0.5,i,9.3,
COC(=O)c1c(C)[nH]c(C(=O)/C=C/c2ccc(Cl)cc2)c1C,30.7,-4.7,-5.4,·,-4.3,-8.8,i,·,
COc1cc(CCC(=O)NNC(=O)c2ccc(C)cc2)cc(OC)c1OC,-7.7,-6.6,-9.8,-12.4,-3.0,-2.1,i,-0.4,
CCCC(=O)Nc1ccc(Cl)c(NC(=S)NC(=O)c2cc3ccccc3o2)c1,-5.9,12.1,-3.8,-19.6,-1.0,-5.5,i,·,
CC(C)NC(=O)C1CCN(Cc2cccc(OCc3ccccc3)c2)CC1,·,·,·,-13.0,4.4,1.5,·,-10.8,
CCCCCNC(=O)C1CCC(Cn2c(=S)[nH]c3ccccc3c2=O)CC1 (stereo not drawn),·,4.5,-3.9,2.3,-5.7,-7.5,i,-4.6,
Cc1ccc(-n2c(-c3cnccn3)n[nH]c2=S)cc1,-8.0,4.5,2.4,·,1.7,5.2,i,-9.0,
CCOC(=O)/C(=N\Nc1ccccc1[N+](=O)[O-])c1csc(Nc2ccccc2)n1,50.8,-7.7,-7.0,-20.1,19.3,-1.4,i,-5.1,
CSCCC1NC(=O)N(CC(=O)Nc2cccc3ccccc23)C1=O (stereo not drawn),-7.7,-8.6,4.5,-20.1,6.6,6.7,i,·,
O=C1NC(N2CCOCC2)=N/C1=C/c1ccc2c(c1)OCO2,-9.0,-0.5,-8.6,-1.8,-4.3,-2.1,i,-7.5,

# Random excerpt: two entries already listed, in no set order.
SMILES,CSC inhib,PABP polyA inh,eIF4H FP inh,Yeast UUG start,MT1-MMP act inh,MT1-MMP act inh RFP,Rce1 inh,Env fusion inh,others
COCCn1c(=NC(=O)c2ccc(S(=O)(=O)N3CCCc4ccccc43)cc2)sc2cc(S(C)(=O)=O)ccc21,7.0,-4.2,4.8,1.4,3.0,1.9,i,22.8,
Cc1ccn(CC(=O)O)c(=O)c1,-16.7,-2.1,-5.3,-3.5,9.4,5.2,i,4.2,

# The main list resumes, starting two compounds before the break.
SMILES,CSC inhib,PABP polyA inh,eIF4H FP inh,Yeast UUG start,MT1-MMP act inh,MT1-MMP act inh RFP,Rce1 inh,Env fusion inh,others
CSCCC1NC(=O)N(CC(=O)Nc2cccc3ccccc23)C1=O (stereo not drawn),-7.7,-8.6,4.5,-20.1,6.6,6.7,i,·,
O=C1NC(N2CCOCC2)=N/C1=C/c1ccc2c(c1)OCO2,-9.0,-0.5,-8.6,-1.8,-4.3,-2.1,i,-7.5,
COc1cccc(C(=O)NCCC(=O)NCc2cc(=O)n(C)c(=O)n2C)c1,-17.8,0.0,-13.5,-10.3,0.3,2.4,i,2.5,
COc1ccc(C(C(=O)NC(C)(C)C)N(CCC(C)C)C(=O)CCC(=O)Nc2cc(C)on2)cc1 (stereo not drawn),11.9,8.4,-1.9,-2.6,1.4,3.5,i,69.1*,
O=C(O)CCC(=O)Nc1nc2ccc([N+](=O)[O-])cc2s1,·,-2.8,1.7,·,-0.7,0.3,i,13.9,
CCCCN(C)CCNC(=O)CSCc1ccc(C)cc1,-6.8,-3.2,7.7,-8.0,0.8,4.7,i,3.9,
Cc1ccc2cc(C)c(NCCO)nc2c1,-1.4,9.4,5.8,-25.7,5.5,2.6,i,·,
COc1ccccc1C(=O)Nn1c(-c2cccs2)nc2ccccc2c1=O,9.7,0.9,12.8,·,-2.2,-2.5,i,26.9,
S=c1[nH]nc(-c2ccc3c(c2)OCO3)n1-c1ccccc1,3.0,23.4,-7.7,-22.7,-7.2,-0.9,i,4.7,
CCOc1ccc(NCc2cccn2-c2nnc(N3CCC(C(=O)NCCCN4CCCCC4CC)CC3)s2)cc1 (stereo not drawn),22.3,-5.1,0.4,-16.7,1.8,-2.7,i,4.1,
Cc1ccnc(NS(=O)(=O)c2cccc3nsnc23)c1,·,12.4,2.5,-4.5,-3.3,0.4,i,·,
Cc1cccc(OCC(=O)N2CCCc3ccccc32)c1,-13.4,1.9,-7.1,·,3.3,2.1,i,-1.9,
O=C(Nc1ncc(Cc2ccc(SC(F)F)cc2)s1)c1ccccc1,67.7,4.1,0.8,5.6,2.0,-18.2,i,-193.7,
Cc1cc(C(=O)Nc2ccccc2C(=O)O)ccc1NC(=O)COc1cccc([N+](=O)[O-])c1,-14.8,13.1,-3.5,-16.7,0.8,2.9,i,-5.5,
O=C1CS/C(=C\S(=O)(=O)c2ccc(Cl)cc2)N1,-10.5,38.0,-5.3,-9.0,-7.8,0.4,i,·,
COCc1nc2c([nH]1)c(=O)n(C)c(=O)n2CC(C)C,4.7,·,·,-33.4,-3.4,2.8,·,-346.7,
COCOc1cccc(CN2CCC2(C)C(=O)Nc2ccc(OC)c(OC)c2)c1 (stereo not drawn),·,·,·,-6.4,3.3,-2.1,·,32.4,
O=C(CCc1nnc2ccc(N3CCC4(CC3)OCCO4)nn12)NCc1ccc(F)cc1,-7.2,2.9,-13.5,8.9,-1.6,-0.4,i,1.5,
CCCCNC(=O)N1CCN(c2ncccn2)CC1,8.6,1.7,-4.0,·,0.6,-1.0,i,13.6,
Cc1cccc(NC(=O)CNC(=O)[C@H]2O[C@@H](n3cnc4c(N)ncnc43)[C@H](O)[C@@H]2O)c1C,·,·,·,-11.1,4.4,2.6,·,13.9,
COc1cc(NC(=O)CN(c2ccc(C)cc2)S(=O)(=O)c2c(C)nn(C)c2C)cc(OC)c1,-18.1,-7.4,-4.6,-5.6,-3.9,-3.3,i,-56.4,
c1nnc(-c2ccc3c(c2)OCO3)o1,-5.3,-5.0,4.0,·,-3.2,-2.4,i,15.9,

# The final 2 records of the section above lead into the next:
SMILES,CSC inhib,PABP polyA inh,eIF4H FP inh,Yeast UUG start,MT1-MMP act inh,MT1-MMP act inh RFP,Rce1 inh,Env fusion inh,others
COc1cc(NC(=O)CN(c2ccc(C)cc2)S(=O)(=O)c2c(C)nn(C)c2C)cc(OC)c1,-18.1,-7.4,-4.6,-5.6,-3.9,-3.3,i,-56.4,
c1nnc(-c2ccc3c(c2)OCO3)o1,-5.3,-5.0,4.0,·,-3.2,-2.4,i,15.9,
COc1ccc(/C=C2/N=C(SCC(=O)Nc3cc(C)on3)N(c3ccccc3)C2=O)cc1,9.1,-2.8,15.1,-3.6,4.2,1.6,·,·,
Cc1c(NC(=O)C(C)OC(=O)c2ccc(Cl)nc2)c(=O)n(-c2ccccc2)n1C (stereo not drawn),1.4,9.9,-0.8,-20.7,-0.6,1.7,i,7.7,
Cc1cccc(C)c1-n1nnnc1C1(Nc2ccccc2)CCCCC1,6.2,-4.4,-2.7,-18.8,-7.0,-5.4,i,·,
CCCCSc1nnc([C@H](C)NC(=O)OC(C)(C)C)o1,3.9,-9.0,-4.1,-16.1,0.5,5.0,i,0.0,
O=C1c2ccccc2C(Nc2ccc(S(=O)(=O)N3CCOCC3)cc2)N1c1cccnc1 (stereo not drawn),-2.7,6.5,-0.8,-2.4,-0.2,5.5,i,6.1,
Cc1cc(-c2nc3cccnc3s2)ccc1NS(=O)(=O)c1ccc2c(c1)OCCO2,16.9,-11.6,-5.0,-11.4,5.2,-0.1,i,-9.8,
O=S(=O)(c1cccc(Cl)c1Cl)N1CCCCC1,-4.7,-3.0,-1.9,-12.5,-3.2,1.0,i,-51.4,
CCC1C(=O)C(CC)C(c2ccccc2)NC1c1ccccc1 (stereo not drawn),3.4,4.3,-4.7,4.2,1.5,1.7,i,19.6,
CCOc1ccc(OCC)c(N=c2oc3c(C)ncc(CO)c3cc2C(N)=O)c1,16.0,-8.8,-1.1,-5.4,-1.8,-0.7,i,28.3,
COC(=O)c1cc2nc(-c3ccccc3)cc(C(F)(F)F)n2n1,-6.6,-16.0,-9.1,-20.8,2.2,0.9,i,-12.9,
CCOC(=O)C1CCCN(CCC(=O)Nc2ccc(C)cc2)C1 (stereo not drawn),·,-10.2,-0.7,4.7,1.9,1.8,i,-19.9,
O=C(OCn1cncn1)c1ccc(Cl)cc1Cl,-15.6,16.6,-2.4,-5.2,-2.6,2.4,i,·,
CC(C)C[C@H](NC(=O)c1nc[nH]c1C(=O)NC1CCN(C(=O)OC(C)(C)C)CC1)C(=O)OCc1ccccc1,34.1,-5.4,12.2,-11.0,-0.6,-0.1,i,-6.3,
O=C(Cc1ccc(Cl)cc1)Nc1ccc(-c2nnc(-c3ccco3)o2)cc1,-3.4,-3.6,-5.9,-8.8,5.2,1.1,i,-138.6,
COc1ccc(CC(=O)NNS(=O)(=O)c2ccc3ccccc3c2)cc1OC,-3.4,-6.5,6.0,-9.4,-2.0,1.0,i,0.6,
Cc1nn(C(C)C(=O)N2CCN(c3ccccn3)CC2)c(=O)c2cc3occc3n12 (stereo not drawn),·,-15.4,-2.8,-3.6,-1.3,5.0,i,·,
CN1OC[C@@H]2CN(C(=O)c3cccnc3)[C@H](c3ccc(N4CCCCC4)cc3)C[C@@H]21,·,·,·,-4.1,0.9,6.1,·,3.0,
CCOC(=S)SCC(=O)N1CCc2ccccc2C1C1C(=O)CCCC1=O (stereo not drawn),-10.5,-8.8,13.7,·,1.5,1.0,i,0.5,
C/C(=N/NC(=O)C1CC1(c1ccccc1)c1ccccc1)c1cccs1 (stereo not drawn),20.8,19.0,6.6,·,-2.6,1.5,i,57.5*,
CC(c1nnc(SCC(=O)N2CCc3ccccc32)n1-c1ccc(Cl)cc1)N(C)C (stereo not drawn),3.9,2.7,1.7,2.3,2.6,2.2,i,·,
CCCCc1nc2cc(C(=O)NCc3ccccn3)ccc2o1,-4.0,-3.5,-13.9,-8.4,4.5,-2.5,i,-12.6,
CN(CC(=O)Nc1ccc(Cl)c(C(F)(F)F)c1)C(=O)CCN1C(=O)C2CCCCC2C1=O (stereo not drawn),·,·,·,-16.1,1.1,-4.9,i,16.3,

# Only part of the results is shown; count on the stated rates, not on these rows.
